NOMO-1 viab: NOMO-1 AML cell viability reduction, primary screen, STK33 inhibitor project, CellTiter-Glo luminescence | 7.5% of 37,000 active | inhibition, % (concentration not given with the values) | NOMO-1 AML viability, 72 h;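 active means most replicates above 80%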;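 further: wells of about 30 µL received 25 nL stock; 0% = median of vehicle wells and 100% = reference inhibitor level; the first replicate is given; inactives centre near 10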
* = called active by the depositor.

| SMILES | NOMO-1 viab |
| --- | --- |
| C[C@@H]1CN([C@@H](C)CO)C(=O)c2cc(NC(=O)Nc3ccc4c(c3)OCO4)ccc2O[C@@H]1CN(C)S(=O)(=O)c1cccs1 | 10.7 |
| Cc1onc(-c2ccccc2)c1C(=O)Nc1cccc(S(=O)(=O)N(C)C)c1 | 8.9 |
| COc1cccc(CNc2nn[nH]n2)c1OC | 17.2 |
| N#CC(C(=O)c1cccc(C(F)(F)F)c1)=C1SCCCCS1 | 57.5 |
| C[C@H](CO)N1C[C@H](C)[C@H](CN(C)CC2CC2)Oc2ccc(NC(=O)CCCCCC(=O)Nc3ccccc3N)cc2CC1=O | 140.4* |
| C[C@@H]1CN([C@H](C)CO)C(=O)c2cccc(NC(=O)Nc3cccc4ccccc34)c2O[C@@H]1CN(C)Cc1ccc(C(F)(F)F)cc1 | 97.6* |
| C[C@H](CO)N1C[C@H](C)[C@H](CN(C)CC2CC2)Oc2ccc(NC(=O)CCN3CCOCC3)cc2CC1=O | 38.2 |
| C[C@H](CO)N1C[C@H](C)[C@H](CN(C)Cc2ccc(Cl)c(Cl)c2)Oc2ccc(NC(=O)C3CCCCC3)cc2CC1=O | 36.8 |
| COc1cccc(Nc2nc(C3(C)CC4(CC(C)OC4=O)C(=O)O3)cs2)c1 (stereo unspecified) | 6.6 |
| C[C@@H]1CN([C@H](C)CO)C(=O)c2cc(NC(=O)Cc3cn(C)c4ccccc34)ccc2O[C@@H]1CN(C)S(=O)(=O)c1cccs1 | -8.4 |
| COC(=O)c1ccccc1NC(=O)CN(C)S(=O)(=O)c1ccc(F)cc1 | 5.5 |
| C[C@H]1CN([C@@H](C)CO)C(=O)c2cc(NC(=O)c3ccncc3)ccc2O[C@@H]1CN(C)S(=O)(=O)c1ccc(F)cc1 | 1.9 |
| O=c1oc(-c2cccnc2)nc2sc3c(c12)CCCCC3 | 21.5 |
| Cc1ccc(OCC(=O)Nc2ncc(C(F)(F)F)cc2Cl)c(Br)c1 | 13.1 |
| C[C@@H]1CN([C@@H](C)CO)C(=O)c2cccc(NS(=O)(=O)c3cccs3)c2O[C@H]1CN(C)S(=O)(=O)c1ccc(F)cc1 | -2.4 |
| c1cnc2c(OCc3nc4ccccc4[nH]3)cccc2c1 | 18.6 |
| COc1cccc(NC(=O)CSc2nnc(-c3ccco3)n2-c2ccccc2)c1 | 39.9 |
| C[C@H](CO)N1C[C@H](C)[C@H](CN(C)Cc2ccc(C(=O)Nc3ccccc3N)cc2)Oc2ccc(NC(=O)C3CC3)cc2CC1=O | 126.6* |
| COc1ccccc1-c1c(C(F)(F)F)oc2cc(OCC(=O)OC(C)C)ccc2c1=O | 95.7* |
| C[C@H]1CN([C@@H](C)CO)C(=O)Cc2cc(NC(=O)Cc3cn(C)c4ccccc34)ccc2O[C@@H]1CN(C)S(C)(=O)=O | 20.6 |
| COc1cc(NC(=S)NCCc2c[nH]c3ccccc23)c(OC)cc1Cl | 2.4 |
| CCOC(=O)c1c(CN2CCOCC2)nc2c3ccccc3ccn12 | -2.7 |
| CCn1c(SCC(=O)Nc2cccc(Br)c2)nnc1-c1ccncc1 | 18.1 |
| CC(=O)Nc1ccc(C(=O)CSc2nncn2C)cc1 | 16.8 |
| Cc1noc(C)c1NC(=O)Nc1cccc2c1O[C@H](CN(C)Cc1ccc3c(c1)OCO3)[C@H](C)CN([C@H](C)CO)C2=O | -1.9 |
| C[C@@H]1CCCCO[C@H](CN(C)S(=O)(=O)c2cccs2)[C@@H](C)CN([C@H](C)CO)C(=O)c2cc(NS(=O)(=O)c3ccccc3)ccc2O1 | 8.0 |
| CC1(C)O[C@@H]2C[C@H]3[C@@H]4C[C@H](F)C5=CC(=O)CC[C@]5(C)[C@H]4[C@@H](O)C[C@]3(C)[C@]2(C(=O)CO)O1 | -3.2 |
| CCOc1ccccc1CN1CCN(Cc2cc(Br)ccc2O)CC1 | 56.1 |
| COc1ccc(NC(=O)CN2CCN(S(=O)(=O)c3ccc4ccccc4c3)CC2)cc1 | 8.8 |
| C[C@H]1CN([C@@H](C)CO)C(=O)Cc2cc(NC(=O)Nc3cccc4ccccc34)ccc2O[C@@H]1CN(C)Cc1ccc(-c2ccccc2)cc1 | 96.0* |
| COc1ccc(S(=O)(=O)N(C)C[C@H]2Oc3c(NC(=O)C4CCOCC4)cccc3C(=O)N([C@@H](C)CO)C[C@H]2C)cc1 | 1.9 |
| C[C@@H]1O[C@@H](O[C@H]2[C@H](O)[C@@H](O)[C@H](OC[C@H]3O[C@@H](OC(=O)[C@]45CCC(C)(C)CC4C4=CCC6[C@@]7(C)CC[C@H](O)C(C)(C)C7CC[C@@]6(C)[C@]4(C)CC5)[C@H](O)[C@@H](O)[C@@H]3O)O[C@@H]2CO)[C@H](O)[C@H](O)[C@H]1O (stereo partly specified) | 121.6* |
| COc1ccc(NC(=O)Nc2ccc3c(c2)CC(=O)N([C@H](C)CO)C[C@@H](C)[C@@H](CN(C)Cc2ccc4c(c2)OCO4)O3)cc1 | 15.5 |
| C[C@H](CO)N1C[C@H](C)[C@H](CN(C)Cc2ccc(C(F)(F)F)cc2)Oc2ccc(NS(=O)(=O)c3cccs3)cc2CC1=O | 10.4 |
| CCC(C)c1ccccc1OCC(=O)Nc1ccccc1C#N (stereo unspecified) | 58.3 |
| C[C@H]1CN([C@@H](C)CO)C(=O)c2cc(N(C)C)ccc2O[C@@H]1CN(C)Cc1ccc(C(=O)O)cc1 | 5.3 |
| C[C@@H]1CN([C@@H](C)CO)C(=O)c2cccc(NC(=O)c3cnccn3)c2O[C@H]1CN(C)Cc1ccncc1 | -0.4 |
| C[C@@H]1CN([C@@H](C)CO)C(=O)c2cccc(NS(=O)(=O)c3ccc(F)cc3)c2O[C@H]1CN(C)Cc1ccc(Oc2ccccc2)cc1 | 30.7 |
| C[C@H]1CN([C@@H](C)CO)C(=O)c2cccc(NS(=O)(=O)c3ccc(Cl)cc3)c2O[C@H]1CN(C)S(=O)(=O)c1ccccc1 | -12.5 |
| C[C@H](CO)N1C[C@H](C)[C@@H](CN(C)S(=O)(=O)c2ccc(Cl)cc2)Oc2c(NC(=O)c3cnccn3)cccc2C1=O | 21.6 |
| C=CC(C)(C)c1c2c(c(O)c3c(=O)c4ccc(O)c(O)c4oc13)C=CC(C)(C)O2 | 106.7* |
| C[C@@H]1CCCCO[C@@H](CN(C)C(=O)CCC(F)(F)F)[C@@H](C)CN([C@H](C)CO)C(=O)c2cc(NC(=O)NC3CCCCC3)ccc2O1 | -5.3 |
| C[C@@H]1CN([C@@H](C)CO)C(=O)c2cccc(NC(=O)Nc3ccccc3)c2O[C@H]1CN(C)Cc1ccc(-c2ccccc2)cc1 | 92.9* |
| Cc1noc(C)c1S(=O)(=O)Nc1ccc2c(c1)C(=O)N([C@H](C)CO)C[C@H](C)[C@@H](CN(C)Cc1ccc(C(=O)O)cc1)OCCCC[C@@H](C)O2 | -20.8 |
| CC(C)NC(=O)Nc1cccc2c1O[C@H](CN(C)CC1CC1)[C@@H](C)CN([C@@H](C)CO)C2=O | 13.6 |
| C=C1C(=O)O[C@H]2[C@H]1[C@H](O)CC(=C)[C@@H]1CC(=O)C(C)[C@H]21 (stereo partly specified) | 117.6* |
| CC(C)Cn1c(=O)n(C)c(=O)c2[nH]cnc21 | 12.4 |
| Cc1cc(C)nc(SCC(=O)Nc2cc([N+](=O)[O-])ccc2C)n1 | 11.2 |
| NC(=O)C1CCN(CCC(=O)Nc2ccc(F)cc2)CC1 | 2.0 |
| Cc1ccc(S(=O)(=O)Nc2cccc3c2O[C@H](CN(C)Cc2ccc4c(c2)OCO4)[C@@H](C)CN([C@H](C)CO)C3=O)cc1 | -4.2 |

(further entries)
| SMILES | NOMO-1 viab |
| --- | --- |
| COc1ccc(S(=O)(=O)Nc2ccc3c(c2)CC(=O)N([C@H](C)CO)C[C@@H](C)[C@H](CN(C)Cc2ccncc2)O3)cc1 | 0.6 |
| O=C(Nc1ccc(O)cc1)c1cc(S(=O)(=O)N2CCOCC2)c(Cl)cc1Cl | 35.6 |
| CNC[C@H]1Oc2c(cccc2N(C)C)C(=O)N([C@@H](C)CO)C[C@H]1C | 26.5 |
| Cc1noc(C)c1NC(=O)N(C)C[C@H]1OCCCC[C@@H](C)Oc2ccc(NC(=O)Nc3ccccc3)cc2C(=O)N([C@H](C)CO)C[C@@H]1C | 10.7 |
| Cc1noc(C)c1S(=O)(=O)Nc1cccc2c1O[C@H](CN(C)C(=O)NC(C)C)[C@H](C)CN([C@@H](C)CO)C2=O | 12.9 |
| Cc1ccc2nc(-c3ccc(NC(=O)CSc4nnc(C)s4)cc3)sc2c1 | 32.1 |
| C[C@@H]1CN([C@H](C)CO)C(=O)Cc2cc(NS(=O)(=O)c3ccc(Cl)cc3)ccc2O[C@@H]1CN(C)S(=O)(=O)c1cn(C)cn1 | 22.7 |
| C[C@H](CO)N1C[C@H](C)[C@H](CN(C)S(=O)(=O)c2cn(C)cn2)Oc2ccc(N(C)C)cc2C1=O | -4.4 |
| Cc1cc(C)c(C#N)c(SCC(=O)Nc2sc3c(c2C#N)CCC3)n1 | 24.1 |
| C[C@@H]1CN([C@H](C)CO)C(=O)c2cccc(NC(=O)Nc3cccc4ccccc34)c2O[C@H]1CN(C)C(=O)Nc1cccc2ccccc12 | 43.6 |
| COc1ccc(NC(=O)Nc2ccc3c(c2)C(=O)N([C@H](C)CO)C[C@H](C)[C@H](CN(C)C(=O)Nc2ccccc2)O3)cc1 | 20.6 |
| O=C(c1ccc(Cl)cc1)N(CCS(=O)(=O)c1ccc(Cl)cc1)Cc1cccs1 | 23.7 |
| COc1ccc(NC(=O)N(C)C[C@@H]2Oc3ccc(NS(=O)(=O)c4ccc(C)cc4)cc3C(=O)N([C@@H](C)CO)C[C@H]2C)cc1 | -22.5 |
| C[C@@H]1CN([C@H](C)CO)C(=O)Cc2cc(NC(=O)Cn3cnnn3)ccc2O[C@H]1CN(C)C(=O)NC1CCCCC1 | 5.2 |
| C[C@H](CO)N1C[C@H](C)[C@@H](CN(C)S(=O)(=O)c2cccs2)Oc2ccc(NC(=O)CCCCCC(=O)Nc3ccccc3N)cc2C1=O | -17.9 |
| CC(C)NC(=O)Nc1ccc2c(c1)C(=O)N([C@@H](C)CO)C[C@@H](C)[C@H](CN(C)S(=O)(=O)c1cn(C)cn1)O2 | 10.4 |
| CC(C)NC(=O)Nc1ccc2c(c1)CC(=O)N([C@@H](C)CO)C[C@H](C)[C@@H](CN(C)Cc1ccc(C(=O)Nc3ccccc3N)cc1)O2 | 24.2 |
| C[C@@H]1CN([C@H](C)CO)C(=O)c2cc(NC(=O)Cn3cnnn3)ccc2O[C@@H]1CN(C)Cc1ccc(Oc2ccccc2)cc1 | 28.8 |
| C[C@H](CO)N1C[C@H](C)[C@H](CN(C)Cc2ccccc2)Oc2ccc(NS(=O)(=O)c3ccccc3)cc2CC1=O | 45.1 |
| CCOC(=O)C(C)Sc1ncnc2c1sc1nc(N3CCOCC3)c3c(c12)CC(C)(C)OC3 (stereo unspecified) | 7.4 |
| O=C(O)C(Cc1ccccc1)N1C(=O)C2C3C=CC(C3)C2C1=O (stereo unspecified) | -1.0 |
| C[C@@H]1CN([C@H](C)CO)C(=O)c2cc(NS(=O)(=O)c3cccs3)ccc2O[C@H]1CN(C)S(=O)(=O)c1ccccc1 | 28.6 |
| CCOc1c(S(=O)(=O)NCc2ccco2)ccc(Cl)c1Cl | 27.7 |
| Cc1noc(C)c1NC(=O)N(C)C[C@@H]1Oc2c(NC(=O)Nc3ccccc3)cccc2C(=O)N([C@@H](C)CO)C[C@@H]1C | 15.6 |
| CCc1cc2c(=O)n(-c3ccccc3)c(SCC(=O)Nc3ccc([N+](=O)[O-])cc3)nc2s1 | 31.7 |
| O=c1c2ccccc2nc2c3ccccc3c(NCc3ccccn3)nn12 | 28.2 |
| C[C@H](CO)N1C[C@H](C)[C@H](CN(C)S(=O)(=O)c2cccs2)Oc2ccc(NS(C)(=O)=O)cc2CC1=O | -0.3 |
| C[C@@H]1CN([C@@H](C)CO)C(=O)c2cc(NS(=O)(=O)c3ccccc3)ccc2O[C@@H]1CN(C)Cc1ccc(C(=O)O)cc1 | 28.2 |
| C[C@H]1CN([C@@H](C)CO)C(=O)c2cc(NC(=O)Nc3ccc(F)cc3)ccc2O[C@@H]1CN(C)S(=O)(=O)c1cccs1 | 24.6 |
| C[C@H]1CN([C@@H](C)CO)C(=O)c2cccc(NC(=O)Nc3ccc4c(c3)OCO4)c2O[C@@H]1CN(C)Cc1ccc(-c2ccccc2)cc1 | 47.6 |
| C[C@@H]1CN([C@@H](C)CO)C(=O)c2cccc(NC(=O)Nc3ccc(C(F)(F)F)cc3)c2O[C@H]1CN(C)Cc1ccc(C(F)(F)F)cc1 | 116.1* |
| Cc1cc(C)nc(SCC(=O)c2ccc(Oc3ccccc3)cc2)n1 | 9.2 |
| Cc1ccc(C)c(NS(=O)(=O)c2ccccc2)c1 | 23.0 |
| CS(=O)(=O)N(CC(=O)Nc1cc(C(F)(F)F)ccc1Cl)c1cccc([N+](=O)[O-])c1 | 30.8 |
| CCC(=O)Nc1ccc(C(=O)Nc2cc(OC)ccc2NC(=O)c2ccco2)cc1 | 9.1 |
| Cc1noc(C)c1NC(=O)N(C)C[C@H]1Oc2ccc(NS(=O)(=O)c3cn(C)cn3)cc2C(=O)N([C@H](C)CO)C[C@H]1C | 1.3 |

7 entries from above, ordered by heavy-atom count, ascending:
| SMILES | NOMO-1 viab |
| --- | --- |
| Cc1ccc(C)c(NS(=O)(=O)c2ccccc2)c1 | 23.0 |
| Cc1cc(C)nc(SCC(=O)c2ccc(Oc3ccccc3)cc2)n1 | 9.2 |
| CS(=O)(=O)N(CC(=O)Nc1cc(C(F)(F)F)ccc1Cl)c1cccc([N+](=O)[O-])c1 | 30.8 |
| C[C@H](CO)N1C[C@H](C)[C@H](CN(C)S(=O)(=O)c2cccs2)Oc2ccc(NS(C)(=O)=O)cc2CC1=O | -0.3 |
| C[C@@H]1CN([C@@H](C)CO)C(=O)c2cc(NS(=O)(=O)c3ccccc3)ccc2O[C@@H]1CN(C)Cc1ccc(C(=O)O)cc1 | 28.2 |
| C[C@@H]1CN([C@@H](C)CO)C(=O)c2cccc(NC(=O)Nc3ccc(C(F)(F)F)cc3)c2O[C@H]1CN(C)Cc1ccc(C(F)(F)F)cc1 | 116.1* |
| C[C@H]1CN([C@@H](C)CO)C(=O)c2cccc(NC(=O)Nc3ccc4c(c3)OCO4)c2O[C@@H]1CN(C)Cc1ccc(-c2ccccc2)cc1 | 47.6 |

Source: PubChem BioAssay

Not all compounds are listed, so the mix of outcomes need not match the whole.
